High-throughput results from PubChem.
CtBP-E1A inh = blocks the CtBP interaction with E1A; AlphaScreen GST-E1A/His-CtBP binding, 1536-well; active compounds read low; control for the full effect not named in the record; activity change, % (concentration not given with the values); 340,000 tested, 0.49% active; AID 651724; in the data active means activity change below about -65%; inconclusive means about -30% to -65%; inactive means above about -30%; note: % is set by controls: 0 for no effect and ±100 for the full control effect
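Homogeneous bead-based format: GST-tagged E1A captured on glutathione donor beads, His-tagged CtBP on nickel acceptor beads; compounds precede bead addition by 2 h at 37 °C.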
PINK1 expr mod = changes PINK1 expression | PINK1 immunofluorescence, high-content cytometry, 24 h | Potency, µM (titrated, usually from 76.6 µM), inactives show top-dose activation (PINK1 increase), hits mostly activators | 410,000 tested, 0.2% active | AID 624263; active = well fitted activation curve with a large enough effect; inconclusive = small, poorly fitted or top-dose-only effect; inactive = flat fitted curve, though single readings scatter; cell line not stated here;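 note: potency is the fitted concentration of half-maximal effect; % of control where 0% means no effect; nearly all actives have a fitted effect of over 65% in size; a mitochondrial uncoupler was the plate control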
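A stable cell line was treated with compounds at 5 concentrations for 24 hours, with CCCP as control. PINK1 levels and mitochondrial localization were measured by immunofluorescence with mitochondrial, cell and nuclear markers after fixation, read by laser-scanning cytometry.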
Six1-Eya2 blk = inhibitors of human Six1/Eya2 interaction. Q15475+O00167. AlphaScreen GST-Six1/His-Eya2 binding, biochemical; active compounds read low; control for the full effect not named in the record. activity change, % (test concentration not listed). AID 651725. 360,000 tested, 0.56% active; in the data active = activity change below about -65%; inconclusive = about -30% to -65%; inactive = above about -30%; note: % is set by controls: 0 for no effect and ±100 for the full control effect
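GST-Six1 + His-Eya2 (5X stock: 250/500 nM); Tris pH 8.0, 300 mM NaCl, 0.05% BSA, 0.02% Tween 20; GSH donor/Ni acceptor beads; 1 h 37 °C dark; AlphaScreen readout.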
D2 agonist = human D2 receptor agonism in beta-arrestin assay. activation, % (test concentration not listed). 360,000 tested, 0.084% active. DiscoveRx PathHunter D2 beta-arrestin, luminescence, 90 min; 100% = 57 uM dopamine signal. AID 624465. P14416; in the data active = activation above about 40%; inconclusive = about 15% to 40%; inactive = below about 15%; note: compound concentration not given in the record; the text of the record calls up to 30% inactive
Target sequence (P14416 whole entry, looked up): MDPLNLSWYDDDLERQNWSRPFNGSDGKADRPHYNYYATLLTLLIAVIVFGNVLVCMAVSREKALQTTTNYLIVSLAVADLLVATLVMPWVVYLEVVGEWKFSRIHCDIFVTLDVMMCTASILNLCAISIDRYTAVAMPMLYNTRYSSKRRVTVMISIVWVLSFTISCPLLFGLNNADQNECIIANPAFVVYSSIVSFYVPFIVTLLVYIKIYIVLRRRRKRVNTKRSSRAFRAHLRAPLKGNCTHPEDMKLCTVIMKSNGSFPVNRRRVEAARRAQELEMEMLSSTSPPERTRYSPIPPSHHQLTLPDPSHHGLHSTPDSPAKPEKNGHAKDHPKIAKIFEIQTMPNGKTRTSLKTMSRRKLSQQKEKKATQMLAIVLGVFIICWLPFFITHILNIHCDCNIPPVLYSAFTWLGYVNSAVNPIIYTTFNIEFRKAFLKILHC
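DiscoveRx PathHunter D2 beta-arrestin cells (2,100/well) attached overnight, then compound-stimulated 90 min at 37 C in HBSS/10 mM HEPES/0.1% Tween-20 buffer; beta-galactosidase complementation read by luminescence after 1 h at ambient temperature. Dopamine 57 uM final (EC100) as control.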
TRPML1 agonist = human mucolipin-1 channel agonism; Q9GZU1; TRPML1-expressing cells, Ca2+ dye fluorescence, FDSS; host cell line not named in the record; reference of the full effect not given here; activation, % (test concentration not listed); 410,000 tested, 0.12% active; AID 624414; in the data active = activation above about 50%; inconclusive = about 30% to 50%; inactive = below about 30%; note: 0% is about no effect; the text of the record puts the active cut at 80%
Target sequence (Q9GZU1 whole entry, looked up): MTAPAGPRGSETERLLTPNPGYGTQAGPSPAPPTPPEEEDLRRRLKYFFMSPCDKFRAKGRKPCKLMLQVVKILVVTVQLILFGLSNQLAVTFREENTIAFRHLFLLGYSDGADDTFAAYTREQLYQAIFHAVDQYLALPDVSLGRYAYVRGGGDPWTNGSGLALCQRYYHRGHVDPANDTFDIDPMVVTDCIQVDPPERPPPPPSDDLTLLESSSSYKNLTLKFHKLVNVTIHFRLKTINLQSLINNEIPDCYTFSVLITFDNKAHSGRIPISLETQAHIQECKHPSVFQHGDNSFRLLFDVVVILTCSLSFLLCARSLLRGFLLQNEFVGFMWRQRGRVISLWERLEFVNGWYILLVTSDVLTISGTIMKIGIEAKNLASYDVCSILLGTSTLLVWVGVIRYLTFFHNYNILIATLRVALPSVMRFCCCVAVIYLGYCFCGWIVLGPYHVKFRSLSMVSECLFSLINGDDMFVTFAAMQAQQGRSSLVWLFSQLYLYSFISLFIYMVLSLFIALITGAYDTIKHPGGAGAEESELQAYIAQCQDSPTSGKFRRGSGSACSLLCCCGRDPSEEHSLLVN
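Kinetic FDSS Ca2+ read in Tet-induced TRPML1-DL cells (ABD Ca8 dye plus quencher, 45-90 min RT loading): baseline, then compound, then 110 s agonist window; EC80 agonist 54-4 at 4uM final added afterwards for a 110 s antagonist window.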
D2 PAM = human D2 receptor positive allosteric modulation. P14416. AID 624464. DiscoveRx D2 beta-arrestin cells, luminescence, 90 min; 100% = 57 uM dopamine signal. potentiation, % (test concentration not listed). 360,000 tested, 0.23% active; active = potentiation of 50% or more; inconclusive = 30% to 50%; inactive = 30% or less;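 note: compound concentration not given in the record; tested on top of an EC20 dose of dopamine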
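PathHunter D2 cells, attached overnight at 37 deg C, received compound in DMSO plus dopamine at EC20 (50 nM final) for 90 min at 37 deg C. Beta-arrestin recruitment was read as luminescence after 1 h with detection reagent at ambient temperature.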
* marks the source's active call; other numbers are inactive results; & = joins results of further samples; [ ] = dose if it differs, or a comment. Compounds were not picked by outcome; 1.3% or so of the library scored in one or more.

What do the screens show for `Cc1ccc(COn2c(-c3ccc(Cl)cc3Cl)nc3ncccc32)cc1`?
CtBP-E1A inh: -7; PINK1 expr mod: -2.4%; Six1-Eya2 blk: -9; D2 agonist: -1.5; TRPML1 agonist: 16; D2 PAM: -9

Results for CC(=O)C1=CCC(c2ccccc2)N(S(=O)(=O)c2cccc(C)c2)C1 (stereo not given) ?
CtBP-E1A inh: 4; PINK1 expr mod: 1.9%; Six1-Eya2 blk: -14; D2 agonist: -8.1; TRPML1 agonist: 0.6; D2 PAM: -7

How did COc1ccc(C2C(C(=O)N3CCCCC3)CC(=O)N2c2ccc(OC)cc2)cc1 (stereo not given) do in these assays?
CtBP-E1A inh: 0; PINK1 expr mod: -0.7%; Six1-Eya2 blk: 0; D2 agonist: -0.7; TRPML1 agonist: -0.4; D2 PAM: 4

How did COc1ccc(C(=NNc2ccccc2C(=O)O)c2ccc(OC)cc2)cc1 do in these assays?
CtBP-E1A inh: 7; PINK1 expr mod: -2.2%; Six1-Eya2 blk: -20; D2 agonist: -0.8; TRPML1 agonist: -0.4; D2 PAM: -30

How did O=C(O)/C=C/c1ccc(S(=O)(=O)N2CCN(CCN3C(=O)C4C5C=CC(C5)C4C3=O)CC2)cc1 (stereo not given) do in these assays?
CtBP-E1A inh: 6; PINK1 expr mod: 1.0%; Six1-Eya2 blk: -1; D2 agonist: -2.4; TRPML1 agonist: 0.1; D2 PAM: -6

How did CCCCCCC(=O)NNC(=O)CC(=O)Nc1ccccc1C(=O)O do in these assays?
CtBP-E1A inh: -7; PINK1 expr mod: 0.6%; Six1-Eya2 blk: 8; D2 agonist: -4.5; TRPML1 agonist: -0.8; D2 PAM: 0

Results for C[C@@H]1CN([C@@H](C)CO)S(=O)(=O)c2ccc(Br)cc2O[C@H]1CN(C)Cc1ccccc1F ?
CtBP-E1A inh: -13; PINK1 expr mod: 4.7%; Six1-Eya2 blk: 6; D2 agonist: -3.8; TRPML1 agonist: -0.5; D2 PAM: -9

How did COc1cc(C(=O)NC(c2ccccc2)c2ccccc2)cc(OC)c1OC do in these assays?
CtBP-E1A inh: 1; PINK1 expr mod: 6.5%; Six1-Eya2 blk: 1; D2 agonist: 0.8; TRPML1 agonist: 0.6; D2 PAM: -7

What do the screens show for `CSc1ccccc1NC(=O)CN(C)C(=O)Cn1c(=O)oc2ccccc21`?
CtBP-E1A inh: 4; PINK1 expr mod: 1.1%; Six1-Eya2 blk: 4; D2 agonist: -4.8; TRPML1 agonist: 0.0; D2 PAM: 2

How did Cc1cnc(CNC(=O)c2csc([C@@H]3O[C@H](CO)[C@H](O)[C@H](O)[C@H]3O)n2)cn1 do in these assays?
CtBP-E1A inh: 9; PINK1 expr mod: -0.3%; Six1-Eya2 blk: 8; D2 agonist: -8.3; TRPML1 agonist: -0.9; D2 PAM: -16

Results for Cc1cc(F)ccc1-c1cc(C(=O)NC(C)C)[nH]n1 ?
CtBP-E1A inh: 0; PINK1 expr mod: 1.6%; Six1-Eya2 blk: 1; D2 agonist: -4.6; TRPML1 agonist: -0.6; D2 PAM: -11

Results for Cc1ccc(NC(=O)Cc2ccc(-n3cccc3)cc2)c(C)c1 ?
CtBP-E1A inh: -4; PINK1 expr mod: -0.1%; Six1-Eya2 blk: 2; D2 agonist: -2.6; TRPML1 agonist: -0.2; D2 PAM: -6

How did COc1cc(CN2CCCC(C(=O)c3ccc4c5c(cccc35)CC4)C2)cc(OC)c1O (stereo not given) do in these assays?
CtBP-E1A inh: -2; PINK1 expr mod: 3.8%; Six1-Eya2 blk: -22; D2 agonist: 0.4; TRPML1 agonist: 1.2; D2 PAM: -18

How did COc1ccc(C)cc1NC(=O)c1ccc2c(=O)n3c(nc2c1)CCCCC3 do in these assays?
CtBP-E1A inh: -4; PINK1 expr mod: -0.1%&-0.8%; Six1-Eya2 blk: -1; D2 agonist: -2.9; TRPML1 agonist: -1.0&1.0; D2 PAM: -6

Results for O=C(NCc1nc2ccccc2[nH]1)c1ccccc1F ?
CtBP-E1A inh: -20; PINK1 expr mod: 0.6%; Six1-Eya2 blk: -3; D2 agonist: -1.0; TRPML1 agonist: -0.2; D2 PAM: -18

Brought forward from above: 2 entries, then new ones.
How did COc1ccc(C)cc1NC(=O)c1ccc2c(=O)n3c(nc2c1)CCCCC3 do in these assays?
CtBP-E1A inh: -4; PINK1 expr mod: -0.1%&-0.8%; Six1-Eya2 blk: -1; D2 agonist: -2.9; TRPML1 agonist: -1.0&1.0; D2 PAM: -6

Results for O=C(NCc1nc2ccccc2[nH]1)c1ccccc1F ?
CtBP-E1A inh: -20; PINK1 expr mod: 0.6%; Six1-Eya2 blk: -3; D2 agonist: -1.0; TRPML1 agonist: -0.2; D2 PAM: -18

How did COC(=O)NCc1ccc(S(=O)(=O)N2CCOCC2)cc1 do in these assays?
CtBP-E1A inh: 0; PINK1 expr mod: -2.1%[38.3 µM]; Six1-Eya2 blk: -1; D2 agonist: -3.2; TRPML1 agonist: -0.4; D2 PAM: -11

How did CCN(CC)CCn1c(N)cc(=O)[nH]c1=O do in these assays?
CtBP-E1A inh: -11; PINK1 expr mod: -2.6%; Six1-Eya2 blk: 1; D2 agonist: -2.7; TRPML1 agonist: 3.4; D2 PAM: -3

Results for CCN1CCN(c2c(Cl)cccc2NC(=O)c2ccco2)CC1 ?
CtBP-E1A inh: 3; PINK1 expr mod: 2.2%; Six1-Eya2 blk: 7; D2 agonist: -0.6; TRPML1 agonist: 0.6; D2 PAM: -31

What do the screens show for `COc1cc2c(cc1OC)CN(C(=O)CCNC(=O)c1ccccc1Cl)CC2`?
CtBP-E1A inh: -4; PINK1 expr mod: 0.2%; Six1-Eya2 blk: 4; D2 agonist: 3.5; TRPML1 agonist: 0.1; D2 PAM: -1

What do the screens show for `Cc1ccc(N2CC(=O)Nc3c(sc4nc(C)cc(C)c34)C2=O)cc1`?
CtBP-E1A inh: 7; PINK1 expr mod: 5.3%; Six1-Eya2 blk: -9; D2 agonist: 0.2; TRPML1 agonist: -0.6; D2 PAM: -7

What do the screens show for `CCOC(=O)/C(C#N)=C1/SC(C)C(=O)N1c1ccc(Br)cc1` (stereo not given)?
CtBP-E1A inh: -10; PINK1 expr mod: 4.0%; Six1-Eya2 blk: 2; D2 agonist: 3.8; TRPML1 agonist: 0.3; D2 PAM: 0

How did CCOc1ccc(CC(=O)Nc2c(C(N)=O)oc3ccccc23)cc1OCC do in these assays?
CtBP-E1A inh: 4; PINK1 expr mod: -1.4%; Six1-Eya2 blk: 1; D2 agonist: 0.0; TRPML1 agonist: -0.3; D2 PAM: -2

How did COc1cccc(C(=O)Nc2ncc3c(n2)CC(C)(C)CC3=O)c1 do in these assays?
CtBP-E1A inh: 10; PINK1 expr mod: 14%; Six1-Eya2 blk: 7; D2 agonist: -2.4; TRPML1 agonist: -0.6; D2 PAM: 5

What do the screens show for `NC(=O)NCCCC(=O)OCC(=O)c1ccc2ccccc2c1`?
CtBP-E1A inh: 8; PINK1 expr mod: 0.4%; Six1-Eya2 blk: 4; D2 agonist: -4.2; TRPML1 agonist: -1.4; D2 PAM: -7

What do the screens show for `CCc1nc2c(cnn2-c2ccc(Cl)cc2)c(=O)n1-c1ccc2c(c1)OCCO2`?
CtBP-E1A inh: -1; PINK1 expr mod: 9.0%; Six1-Eya2 blk: 2; D2 agonist: 0.0; TRPML1 agonist: 0.3; D2 PAM: -4

Results for COc1ccc(-c2ccc3oc(-c4ccsc4)cc(=O)c3c2)cc1F ?
CtBP-E1A inh: 6; PINK1 expr mod: -0.7%; Six1-Eya2 blk: 10; D2 agonist: -1.1; TRPML1 agonist: -0.6; D2 PAM: -8

What do the screens show for `CC(C)CCNC(=O)C(=O)NCc1ccccc1`?
CtBP-E1A inh: 6; PINK1 expr mod: 0.9%; Six1-Eya2 blk: 12; D2 agonist: -4.0; TRPML1 agonist: 2.7; D2 PAM: -2

How did CCCCNC(=O)COC(=O)c1cc(C)nc2ccccc12 do in these assays?
CtBP-E1A inh: 0; PINK1 expr mod: 3.5%[38.3 µM]; Six1-Eya2 blk: 2; D2 agonist: -1.9; TRPML1 agonist: -0.2; D2 PAM: 1

How did COc1ccc(-c2nc(CSCC(=O)N3CCN(c4cccc(C)c4)C(C)C3)c(C)o2)cc1OC (stereo not given) do in these assays?
CtBP-E1A inh: 2; PINK1 expr mod: 6.9%; Six1-Eya2 blk: -28; D2 agonist: -3.7; TRPML1 agonist: 1.9; D2 PAM: 1

What do the screens show for `COc1ccc(S(=O)(=O)NC(CC(C)C)C(=O)NC(C)c2cccs2)cc1` (stereo not given)?
CtBP-E1A inh: 5; PINK1 expr mod: 0.3%; Six1-Eya2 blk: -2; D2 agonist: -0.1; TRPML1 agonist: 1.4; D2 PAM: -1

What do the screens show for `Cc1cc2ccccn2c1C(=O)c1cccc(F)c1`?
CtBP-E1A inh: 23; PINK1 expr mod: 4.7%; Six1-Eya2 blk: 2; D2 agonist: 0.7; TRPML1 agonist: 0.8; D2 PAM: -2

Results for O=C(Nc1ccccc1F)c1ccc2snnc2c1 ?
CtBP-E1A inh: 5; PINK1 expr mod: 0.7%; Six1-Eya2 blk: 5; D2 agonist: -2.9; TRPML1 agonist: -0.3; D2 PAM: -10

What do the screens show for `O=C(C1CCN(S(=O)(=O)c2cccc3cccnc23)CC1)N1CCn2c1nc1ccccc12`?
CtBP-E1A inh: -2; PINK1 expr mod: 0.9%; Six1-Eya2 blk: -21; D2 agonist: -18; TRPML1 agonist: 0.8; D2 PAM: -39

How did CCC(C)[C@H](NC(=O)OC(C)(C)C)C(=O)N/N=C/c1ccc2cc(OC)ccc2n1 (stereo not given in full) do in these assays?
CtBP-E1A inh: 3; PINK1 expr mod: -0.3%; Six1-Eya2 blk: -4; D2 agonist: 0.8; TRPML1 agonist: 1.7; D2 PAM: -5

What do the screens show for `COC(=O)c1ccccc1NC(=S)NC(=O)C1CC1`?
CtBP-E1A inh: 2; PINK1 expr mod: inconclusive; Six1-Eya2 blk: -2; D2 agonist: -0.5; TRPML1 agonist: -0.3; D2 PAM: -7

What do the screens show for `COc1cc(CC(=O)OCC(=O)NC2CCCCC2)cc(OC)c1OC`?
CtBP-E1A inh: -2; PINK1 expr mod: -0.6%; Six1-Eya2 blk: 6; D2 agonist: 0.4; TRPML1 agonist: -1.1; D2 PAM: -10

How did O=C(Nc1ccc(Oc2ccccc2)cc1)c1cnc2n(c1=O)CCS2 do in these assays?
CtBP-E1A inh: 7; PINK1 expr mod: 6.0%; Six1-Eya2 blk: 3; D2 agonist: 5.7; TRPML1 agonist: -0.8; D2 PAM: -1

Results for OCCN(CCO)CC(O)COc1ccc2c(c1)OCO2 (stereo not given) ?
CtBP-E1A inh: -1; PINK1 expr mod: 1.4%; Six1-Eya2 blk: -7; D2 agonist: -0.8; TRPML1 agonist: 0.0; D2 PAM: -27

Results for Cc1ccc(-c2nnc(N3CCC(C)CC3)c3ccccc23)cc1C ?
CtBP-E1A inh: -9; PINK1 expr mod: -1.2%; Six1-Eya2 blk: -2; D2 agonist: 1.4; TRPML1 agonist: 24; D2 PAM: -25
